gsp antag = antagonists of gsp mutant (McCune-Albright syndrome); 340,000 tested, 0.4% active; AID 624288; gsp-mutant cells, cAMP HTRF, 30 min; control for the full effect not named in the record; Potency, µM (highest dose often 76.9 µM), inactives show top-dose activity change, negative = inhibition, hits mostly inhibitors; active = falling curve of any shape with a large fitted effect; inconclusive = falling curve, mostly with a smaller effect; inactive = flat or rising curve; cell line not stated here;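 further: intracellular cAMP measured with PDE inhibitor Ro 20-1724 present during compound exposure; potency means the concentration at half of the fitted maximal effect; on the % scale 0 is the no-effect control and ±100 the full control effect; nearly all actives have a fitted effect of over 65% in size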
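G418-selected cells were plated in DMEM/10% FBS for 16-24 h at 37C, then treated with compounds plus the PDE inhibitor […] (300 uM solution added) for 30 min at 37C. Intracellular cAMP was measured by HTRF after 30 min lysis at room temperature.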
Menin MLL FP FL = menin-MLL binding inhibition, fluorescein peptide; AID 1766; Fluorescence polarization, fluorescein-MLL peptide displacement from menin; FP activity change, % at 61.4 µM; 290,000 tested, under 10 active; inconclusive = falling polarisation curve, or a change in total fluorescence; inactive = total fluorescence flat and polarisation flat or rising; no compound was filed as active; the % refers to the polarisation; negative = inhibition;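 further: % of control where 0% means no effect; inhibitors lower the polarisation; unlabelled MLL peptide was the positive control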
gsp agonist = agonists of gsp mutant (McCune-Albright syndrome); gsp mutant cells, cAMP HTRF, 30 min; control for the full effect not named in the record; Potency, µM (series often up to 76.9 µM), for the others: at the top dose activation (cAMP increase), actives largely listed as activators; 340,000 tested, 0.13% active; active = well fitted activation curve with a large enough effect; inconclusive = small, poorly fitted or top-dose-only effect, or another doubt; inactive = no such curve, though single readings can be large or run the other way; cell line not stated here;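 further: phosphodiesterase inhibitor Ro 20-1724 added with compounds to block cAMP breakdown; potency means the concentration at half of the fitted maximal effect; nearly all actives have a fitted effect of over 60% in size; about a fifth of the inactives were tested at one dose only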
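Cells stably selected in G418 were plated at 2000/well, grown 16-24 hr, then given compounds in DMSO with the PDE inhibitor […] (300 uM solution added) for 30 min at 37C; cAMP was read by HTRF.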
PINK1 expr mod = PINK1 expression modulation; 410,000 tested, 0.2% active; AID 624263; Potency, µM (top dose mostly 76.6 µM), without a hit: at the top dose activation (PINK1 increase), most hits filed as activators; PINK1 immunofluorescence, high-content cytometry, 24 h; active = well fitted activation curve with a large enough effect; inconclusive = small, poorly fitted or top-dose-only effect; inactive = flat fitted curve, though single readings scatter; cell line not stated here;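 further: potency means the concentration at half of the fitted maximal effect; % of control where 0% means no effect; nearly all actives have a fitted effect of over 65% in size; a mitochondrial uncoupler was the plate control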
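Readout is PINK1 immunofluorescence, quantified alongside mitochondrial, cell and nuclear markers by laser-scanning microplate cytometry. Cells from a stable line were exposed to compound titrations (5 concentrations) for 24 hours, with CCCP controls.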
ClpP mod = qHTS Assay for Activators of ClpP; Potency, µM (top dose mostly 57.5 µM), for the others: at the highest dose activity change, negative = active; purified B. subtilis ClpP, FRET peptide cleavage, 20 min; 340,000 tested, 1.9% active; AID 651965, 2013; ATP-dependent Clp protease proteolytic subunit (Bacillus subtilis (strain 168)), P80244; active = well fitted falling curve with a large enough effect; inconclusive = small, poorly fitted or top-dose-only effect; inactive = no such curve, though single readings can be large or run the other way; further: potency means the concentration at half of the fitted maximal effect; the source files actives as falling curves though it sought activators and does not explain the sign; nearly all actives have a fitted effect of over 65% in size; many hits overshoot -100%
Target sequence (P80244 whole entry, looked up): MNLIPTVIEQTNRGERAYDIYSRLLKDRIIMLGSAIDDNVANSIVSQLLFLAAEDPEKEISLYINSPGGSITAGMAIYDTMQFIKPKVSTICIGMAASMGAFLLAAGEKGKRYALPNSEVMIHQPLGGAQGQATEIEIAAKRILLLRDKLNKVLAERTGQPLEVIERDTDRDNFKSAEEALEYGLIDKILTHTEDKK
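FRET quenching reversal measured ClpP activation: 10 microg/mL B. subtilis ClpP at pH 8 with the FRET-FV decapeptide, read at 430 nm after 320 nm excitation. The 20-min minus 0-min signal was scaled between DMSO/no-enzyme wells and ADEP (5.8 microM final).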
D2 agonist = human D2 receptor agonism in beta-arrestin assay | activation, % (concentration not given with the values) | DiscoveRx PathHunter D2 beta-arrestin, luminescence, 90 min; 100% = 57 uM dopamine signal | 360,000 tested, 0.084% active | AID 624465 | P14416; in the data active = activation above about 40%; inconclusive = about 15% to 40%; inactive = below about 15%; further: compound concentration not given in the record; the text of the record calls up to 30% inactive
Target sequence (P14416 whole entry, looked up): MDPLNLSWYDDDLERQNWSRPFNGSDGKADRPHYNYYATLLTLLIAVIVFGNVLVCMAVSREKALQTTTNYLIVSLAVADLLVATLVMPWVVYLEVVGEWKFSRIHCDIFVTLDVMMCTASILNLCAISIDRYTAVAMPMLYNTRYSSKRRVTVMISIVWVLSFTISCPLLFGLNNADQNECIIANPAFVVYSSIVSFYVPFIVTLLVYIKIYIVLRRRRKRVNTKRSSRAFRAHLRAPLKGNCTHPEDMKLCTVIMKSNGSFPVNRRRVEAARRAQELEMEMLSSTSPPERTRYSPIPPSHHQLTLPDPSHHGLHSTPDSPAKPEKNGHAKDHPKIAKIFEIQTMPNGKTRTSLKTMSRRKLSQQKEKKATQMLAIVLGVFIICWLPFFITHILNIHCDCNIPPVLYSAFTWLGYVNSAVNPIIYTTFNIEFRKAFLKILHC
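Agonist mode: compounds alone added to overnight-plated D2 PathHunter cells for 90 min at 37 C, with 57 uM final dopamine (EC100) defining full response. Beta-arrestin recruitment detected by chemiluminescent reagent, read after 1 h at ambient temperature.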
Sfp inh = Sfp phosphopantetheinyl transferase inhibition; Biochemical Sfp PPTase activity, qHTS; Potency, µM, without a hit: max response, negative = inhibition, hits mostly inhibitors; 310,000 tested, 3.5% active; AID 1490; active means well fitted inhibition curve with a large enough effect; inconclusive means small, poorly fitted or top-dose-only effect, or another doubt; inactive means no such curve, though single readings can be large or run the other way;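 further: the enzyme is Sfp with the accession as filed and its product quenches rhodamine fluorescence; potency means the concentration at half of the fitted maximal effect; 0% = enzyme reaction without inhibitor and -100% = no enzyme wells; top concentration of the series not given in the record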
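Reaction rates are the 30-min fluorescence difference (ex 525, em 598 nm) in wells containing 15 nM Sfp, 5 uM rhodamine-CoA and 12.5 uM BHQ-2-YbbR at pH 7.6 with 10 mM MgCl2.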
Starred values were filed as active, the others as inactive; u = inconclusive; x = no result given; & = joins results of further samples; [ ] = remark or other dose.

A first look, 11 compounds:
Every second line gives: D2 agonist	Sfp inh	ClpP mod	PINK1 expr mod	gsp antag	Menin MLL FP FL	gsp agonist
- COC(=O)c1c(-c2ccc(OC)cc2)oc2ccc(-c3cc(OC)c(OC)c(OC)c3)cc12
 : 1.1	x	4.2%	-0.9%	-2%	x	x
- C=CCn1nc2ccccc2c1OC
 : -5.4	x	-4.0%	1.7%	4%	x	11%
- O=c1c(-c2cc(F)cc(F)c2)nc2cnc(Oc3ccccc3)nc2n1C[C@H]1CCCO1
 : x	13%	x	1.4%	x	6.4	x
- CC(C)[C@@H](NC(=O)OC(C)(C)C)C(=O)NCC1CCC(C(=O)N[C@@H](Cc2ccccc2)C(=O)O)CC1 (some centres not stated)
 : -3.6	7%	u	-1.9%	15%	-23	-25%[15.4 µM]
- COc1ccc(C2(c3ccc(OC)cc3)NC(=O)N(CC(=O)Nc3ccc(C(N)=O)cc3)C2=O)cc1
 : 4.2	11%	x	0.8%	8%	-20	19%[15.4 µM]
- CCOc1ccc(-c2cc(C(=O)NCCOC)[nH]n2)c(C)c1
 : -1.7	x	-2.1%	1.9%	x	x	x
- O=C1CCCc2ccccc2N1Cc1ccc(F)cc1
 : -2.2	3%	0.2%	4.9%	-4%	1.7	-20%
- O=C(COC(=O)CC1CC2CCC1C2)Nc1ccccc1[N+](=O)[O-] (configuration not stated)
 : -0.9	x	-1.6%	4.3%	3%	x	-2%[15.4 µM]
- Cc1cc(C)c2sc(N(CCN(C)C)C(=O)c3cc(Cl)sc3Cl)nc2c1
 : -4.7	-11%	x	u	2%	0.3	11%
- COc1cc(C)c(C)cc1S(=O)(=O)N1CCN(Cc2ccc3c(c2)OCO3)CC1
 : -2.1	10%	-2.5%	1.3%	-10%	3.2	0%
- CC1CCCC(NC(=O)COC(=O)c2ccccc2C(=O)N(C)C2CCCCC2)C1C (configuration not stated)
 : -3.4	x	-0.8%	3.6%	x	x	-12%

Results, previewed entries included:
Every second line gives: D2 agonist	Sfp inh	ClpP mod	PINK1 expr mod	gsp antag	Menin MLL FP FL	gsp agonist
- COC(=O)c1c(-c2ccc(OC)cc2)oc2ccc(-c3cc(OC)c(OC)c(OC)c3)cc12
 : 1.1	x	4.2%	-0.9%	-2%	x	x
- C=CCn1nc2ccccc2c1OC
 : -5.4	x	-4.0%	1.7%	4%	x	11%
- O=c1c(-c2cc(F)cc(F)c2)nc2cnc(Oc3ccccc3)nc2n1C[C@H]1CCCO1
 : x	13%	x	1.4%	x	6.4	x
- CC(C)[C@@H](NC(=O)OC(C)(C)C)C(=O)NCC1CCC(C(=O)N[C@@H](Cc2ccccc2)C(=O)O)CC1 (some centres not stated)
 : -3.6	7%	u	-1.9%	15%	-23	-25%[15.4 µM]
- COc1ccc(C2(c3ccc(OC)cc3)NC(=O)N(CC(=O)Nc3ccc(C(N)=O)cc3)C2=O)cc1
 : 4.2	11%	x	0.8%	8%	-20	19%[15.4 µM]
- CCOc1ccc(-c2cc(C(=O)NCCOC)[nH]n2)c(C)c1
 : -1.7	x	-2.1%	1.9%	x	x	x
- O=C1CCCc2ccccc2N1Cc1ccc(F)cc1
 : -2.2	3%	0.2%	4.9%	-4%	1.7	-20%
- O=C(COC(=O)CC1CC2CCC1C2)Nc1ccccc1[N+](=O)[O-] (configuration not stated)
 : -0.9	x	-1.6%	4.3%	3%	x	-2%[15.4 µM]
- Cc1cc(C)c2sc(N(CCN(C)C)C(=O)c3cc(Cl)sc3Cl)nc2c1
 : -4.7	-11%	x	u	2%	0.3	11%
- COc1cc(C)c(C)cc1S(=O)(=O)N1CCN(Cc2ccc3c(c2)OCO3)CC1
 : -2.1	10%	-2.5%	1.3%	-10%	3.2	0%
- CC1CCCC(NC(=O)COC(=O)c2ccccc2C(=O)N(C)C2CCCCC2)C1C (configuration not stated)
 : -3.4	x	-0.8%	3.6%	x	x	-12%
- CCCCNC(=O)c1ccc(NC(C)=O)c(Cl)c1
 : -1.4	5%	x	0.1%	x	3.5	-7%[15.4 µM]
- c1ccc(Cn2nnc3c(N4CCCCCC4)ncnc32)cc1
 : 0.4	-14%	-2.8%	0.1%	-1%	-3.1	-14%
- CC(C)c1ccc(Nc2nc(NCc3ccco3)nc(N3CCOCC3)n2)cc1
 : -3.1	10%	-3.8%	u	-6%	5.6	0%
- CCOC(=O)C(C)n1cnc2scc(-c3ccc(C)c(C)c3)c2c1=O (configuration not stated)
 : -0.2	5%	-2.6%	1.3%	u	9.7	8%

(more compounds)
Every second line gives: D2 agonist	Sfp inh	ClpP mod	PINK1 expr mod	gsp antag	Menin MLL FP FL	gsp agonist
- CC1(OC(=O)CCc2ccccc2)C(=O)C=C2C=C(c3ccc(C#N)cc3)N(CCN3CCOCC3)C=C2C1=O (configuration not stated)
 : 8.3	7%&-8%	-0.3%	3.5%	-19%	-0.1[11.7 µM]	x
- CN(C)c1ccc(Sc2ccc3nc(N)nc(N)c3c2)cc1
 : -4.5	x	0.6%	-2.0%	x	x	3%
- COc1ccc2nc(NC(=O)CN3CCN(C)CC3)sc2c1
 : -3.4	-3%	-2.1%	-1.7%	5%	-0.9	2%
- COC(=O)c1ccc(-c2cc(C(=O)O)c3cc4c(cc3n2)OCCO4)cc1
 : 0.3	23%	-8.4%	0.6%	-15%	6.7	11%
- Cc1cc(NC(=O)c2cnn3cccnc23)no1
 : 0.9	10%	-4.4%	1.3%[38.3 µM]	17%	6.2	0%
- Cc1cc2c(cc1C)N[C@]1(C[C@H]3CCCC(=O)N4CC[C@@H](C1)[C@@H]34)C(=NC(C)(C)CC(C)(C)C)N2
 : 5.6	x	0.3%&2.8%	0.6%	-7%	x	x
- O=C(/C=C/c1ccc2c(c1)OCO2)NCCSCc1c(Cl)cccc1Cl
 : 0.7	3%	u	0.4%	-3%	0.1	-9%
- CC1(C(=O)NCc2ccccc2)CCC(=O)N1CCCn1ccnc1 (configuration not stated)
 : -1.3	x	-1.4%	0.6%	x	x	x
- CC(C)c1nc(Cl)c(C#N)c2c1CCCC2
 : 0.2	6%	x	4.5%	-5%	-0.3	-8%[15.4 µM]
- Cn1nc([N+](=O)[O-])nc1Oc1ccccc1
 : 1.3	3%	0.7%	4.4%[38.3 µM]	8%	3.2	2%
- Cc1cccc(OCCC(=O)NCC(=O)Nc2c(C)cccc2C)c1
 : -2.6	18%	-3.6%	-1.4%	13%	5.1	-23%
- CCOc1cc(/C=N/NC(=O)c2c(-c3ccccc3)noc2C)ccc1O
 : 0.6	6%	-2.9%	3.4%	3%	1.9	-28%
- COc1ccccc1NC(=O)Cc1ccsc1
 : 0.2	5%	-3.0%	0.4%	14%	x	1%
- COc1ccc2c(c1OC)C(=O)OC2Nc1nc(-c2cccc([N+](=O)[O-])c2)cs1 (configuration not stated)
 : -5.4	10%	u	1.4%	6%	1.2	-4%[15.4 µM]
- CCN(C(=O)COc1ccccc1C(=O)NCc1ccccc1)C1CCS(=O)(=O)C1 (configuration not stated)
 : -5.8	x	1.6%	2.1%	-5%	x	-4%

More structures
Every second line gives: D2 agonist	Sfp inh	ClpP mod	PINK1 expr mod	gsp antag	Menin MLL FP FL	gsp agonist
- Cc1cccc(C(C)C)c1NC(=O)c1ccc(CN(c2ccccc2)S(=O)(=O)c2ccccc2)cc1
 : -1.1	5%	-2.0%	8.1%	0%	3.5	3%
- Cc1ccsc1/C=N/Nc1nc(Cl)c(Cl)cc1Cl
 : -1.1	14%	-4.3%	u	1%	1.6	-13%
- Cc1ccc(SCC(=O)Nc2nnc(C(C)(C)C)s2)cc1
 : -0.6	-2%	x	9.8%	11%	0.1	-8%
- O=c1[nH]c2ccccc2nc1-c1cccs1
 : -1.4	10%	14µM*	-1.2%	7%	3.8	13%
- COc1ccccc1N1CCN(C(c2ccccc2Cl)c2nnnn2C(C)(C)C)CC1 (configuration not stated)
 : -3.4	-4%	5.2%	1.2%	u	1.3	-10%
- CCc1ccc(NC(=O)/C(C#N)=C/c2cn(CC(=O)O)c3ccccc23)cc1
 : 1.5	10%	x	-0.4%	1%	12	13%[15.4 µM]
- COc1cc(OC)cc(C(=O)NC(C(=O)NCCN(C)C)C23CC4CC(CC(C4)C2)C3)c1 (configuration not stated)
 : -4.8	-5%	-0.3%	-2.1%	12%	-2.3	-1%
- Cn1c(=O)c2cn(-c3cccc4ccccc34)cc2n(C)c1=O
 : 3.5	-18%	0.0%	5.3%	-6%	-0.2	-10%[15.4 µM]
- CC(=O)NC(Cc1ccc(F)cc1)C(=O)NC1CCN(S(=O)(=O)c2ccccc2)CC1 (configuration not stated)
 : -3.8	15%	x	-1.0%	7%	x	0%
- CCc1noc(C)c1C(=O)OC(C)C(=O)NCc1ccc(OC)cc1 (configuration not stated)
 : 0.6	x	-0.9%	2.5%	8%	x	-1%
- O=C1COc2ccc(S(=O)(=O)N3CCN(c4cccc(C(F)(F)F)c4)CC3)cc2N1
 : -3.8	19%	0.2%	6.2%	7%	x	u
- Cc1ccc(S(=O)(=O)N2CCN(C)CC2)cc1C(=O)NC1CCCCC1
 : 0.9	16%	-2.0%	-3.5%	11%	2.3	u
- Cc1onc(-c2ccccc2)c1C(=O)NC(=S)NNC(=O)c1ccc(O)cc1O
 : -7.8	23%	-1.1%	u	-8%	x	-1%
- O=C(Nc1ccc(S(=O)(=O)Nc2nccs2)cc1)/C(=C/c1ccccc1Cl)NC(=O)c1ccccc1
 : -0.9	39%[activator]	-9.5%	19%	-9%	3.0	-20%
- CCOC(=O)N/N=C\c1ccccc1OC/C=C/c1ccccc1
 : -3.5	8%	-2.5%	2.5%	-9%	-1.5	21%

Screening results from PubChem.
